# MLL AF4-AF9 inh = blocks AF4 peptide binding to human AF9. hit rate 0.47% among 350,000. AID 651704. P42568. AlphaScreen, biotin-AF4 peptide binding to FLAG-AF9. inhibition, % at 10 µM;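 active = every replicate reaching a set inhibition limit, whatever the replicate mean, cut at about 25% in these data; inconclusive = mean inhibition reaches that limit but some replicates miss it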;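 note: 0% = plate neutral control median and 100% = total signal loss; the record names both 10 and 1 µM as test concentration; the first replicate is given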
# Target sequence (P42568 whole entry, looked up): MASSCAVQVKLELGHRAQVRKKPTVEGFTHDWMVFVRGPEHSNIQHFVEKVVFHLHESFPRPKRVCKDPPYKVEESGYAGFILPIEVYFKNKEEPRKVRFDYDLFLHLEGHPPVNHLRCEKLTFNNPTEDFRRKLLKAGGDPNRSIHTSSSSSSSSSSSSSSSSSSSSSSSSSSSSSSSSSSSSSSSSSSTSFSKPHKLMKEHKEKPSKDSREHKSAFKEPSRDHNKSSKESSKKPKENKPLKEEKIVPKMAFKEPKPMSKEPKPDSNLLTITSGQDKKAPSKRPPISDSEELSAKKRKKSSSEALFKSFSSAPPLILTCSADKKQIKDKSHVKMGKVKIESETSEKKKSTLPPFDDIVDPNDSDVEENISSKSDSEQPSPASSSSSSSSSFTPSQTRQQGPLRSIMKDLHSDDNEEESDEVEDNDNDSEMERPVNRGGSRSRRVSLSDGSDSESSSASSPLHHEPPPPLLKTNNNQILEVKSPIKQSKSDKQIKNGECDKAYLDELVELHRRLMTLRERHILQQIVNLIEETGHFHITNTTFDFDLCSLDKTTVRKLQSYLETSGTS
# Bfl-1 A1 inh = inhibitors of the anti-apoptotic protein A1, read as caspase activation | MEF A1-2A-BIM cells, Caspase-Glo 3/7 luminescence, 3 h; percent of clofoctol response, vehicle zero | caspase activation, % (no concentration beside the values) | hit rate 0.066% among 330,000 | AID 2462;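 active = over half of replicate activation scores above 10%, or exactly half above 10 with the replicate mean above 10; inconclusive = replicate mean below 10 yet half the replicates above 10; inactive = over half of replicates below 10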;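 note: wells of about 30 µL received 50 nL stock; many hits fall short of the cut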
# RanGTP-Imp inh = disruptors of Ran-importin-beta complex formation – biochemical, FRET, CFP-Ran, YFP-importin-beta, homogeneous, primary screen. inhibition, % (concentration not given with the values). hit rate 1.1% among 300,000. cell-free CFP-Ran/YFP-importin-beta FRET ratio;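 active = most replicates above 15%; inconclusive = exactly half above 15%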;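 note: 0% = DMSO wells and 100% = Ran loaded with GDP instead of GTP; wells of about 40 µL received 100 nL stock; the first replicate is given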
# rRNA inh HTS = inhibitors of bacterial rRNA selective over humanized ribosomes; GFP signal change (wild-type ribosome), % (test concentration not listed); AID 720706; hit rate 1.6% among 350,000; E. coli WT GFP vs humanized-ribosome RFP mutants, fluorescence, 24 h; stronger effect = lower value; DMSO median 0, no signal -100;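 active = significant combined selectivity score with lowered wild-type GFP, culture density cut under 30%, mutant RFP and density less affected; inactive = any of these conditions unmet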; note: one replicate is shown; some compounds called inactive have numbers as strong as hits
# Vif TR-FRET = inhibitors of Vif binding to APOBEC3G peptide, primary screen, biochemical, TR-FRET, GST-Vif 1-94, biotin-A3G peptide, dose response retest (AID 1117319) | TR-FRET GST-Vif / biotin-A3G peptide binding; higher % means a stronger effect; test concentration not given here; strong numbers were not always called active | inhibition, %; hits with a dose series show IC50 in µM | hit rate 0.57% among 260,000;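 active = above the screen mean plus three standard deviations and confirmed in dose response; inconclusive = results disagree or hit not tested in dose response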;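 note: Vif residues 1-94 fused to GST binding biotinylated APOBEC3G peptide 110-148; 0% = full assay without inhibitor and 100% = GST in place of GST-Vif; retest series ran down from 100 µM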
# T cruzi repl = T. cruzi replication inhibition | T. cruzi beta-gal in NIH3T3, luminescence, 90 h | inhibition, % (concentration not given with the values) | hit rate 1.4% among 300,000;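 active = mean inhibition across valid replicates above about 55%, limit read from the data; inconclusive = mean below that limit but half or more replicates reach it; inactive = mean below it, under half of replicates reach it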;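 note: signal also drops with host cell toxicity which is not excluded here; 0% = plate median of DMSO wells and 100% = zero luminescence signal; higher percent means less beta-gal luminescence so fewer parasites; stock transfer was 50 nL into about 50 µL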
# Beta apoptosis = blocks beta cell apoptosis; INS-1E cytokine-induced death, ATP luminescence, 48 h; percent of positive-control rescue, neutral wells zero; protection from apoptosis, % (test concentration not listed); hit rate 0.8% among 300,000; AID 435005;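 active = all replicates at 75% or more, or half of them and the mean; inconclusive = half reach 75% but not the mean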;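 note: 0% = cytokine-treated negative control wells and 100% = positive control rescue; higher means more ATP so stronger rescue from cytokine killing; wells of about 40 µL received 100 nL stock; the first replicate is given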
# Calb FLC = affects C. albicans growth with fluconazole. C. albicans CaCi-2 (fluconazole-resistant clinical isolate) + fluconazole, Alamar Blue growth, 48 h. growth inhibition, % (concentration not given with the values). hit rate 0.57% among 300,000. AID 1979;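 active = most replicates above 75%; inconclusive = exactly half above 75%; inactive = most below 75%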;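 note: all wells also contain fluconazole at 8 µg/ml as a sub-toxic cotreatment; 0% = median of DMSO wells and 100% = median of geldanamycin control wells; wells of about 8 µL received 7.5 nL stock; the first replicate is given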
# rRNA inh HTS OD600 = recorded beside rRNA inh HTS, whose call it bears; OD600 change, %; measured here: OD600 growth;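 optical density of the mix in the first replicate; 0 = DMSO median and -100 = no signal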
# rRNA inh HTS RFP = recorded beside rRNA inh HTS, whose call it bears; RFP signal change, %; measured here: RFP humanized mutant strains;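 first replicate; 0 = DMSO median and -100 = no signal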
# * marks the source's active call; other numbers are inactive results; ? = inconclusive; . = no result given; & = joins results of further samples. This is a subset. The share of hits here may be higher or lower than overall.
SMILES	MLL AF4-AF9 inh	Bfl-1 A1 inh	RanGTP-Imp inh	rRNA inh HTS	rRNA inh HTS OD600	rRNA inh HTS RFP	Vif TR-FRET	T cruzi repl	Beta apoptosis	Calb FLC
Cc1ccc(-n2ncc3c2CC(C)(C)CC3NC(=O)CCCN2CCCC2=O)cc1 (stereo unspecified)	-0.2	1.6	1.9	3	3	-0.6	-3%	0	0	-3
COC(=O)CC1COc2ccccc2N1C(=O)c1cccc(C(F)(F)F)c1 (stereo unspecified)	-1.7	-0.4	-3.1	-1	2	2.5	.	-2	1	?
COc1ccc(OC)c(NS(=O)(=O)c2ccc(NC(C)=O)cc2)c1	.	0.6	?	.	.	.	16%	-4	2	14
CCC(=O)Nc1cccc(NC(=S)NC(=O)c2ccccc2Cl)c1	.	-0.2	2.8	.	.	.	3%	-14	-1	6
CC(C)n1c(=O)[nH]c2ccccc21	0.3	-0.1	-2.0	10	11	-4.3	-1%	-7	-2	-1
CC1CCCCC1NC(=O)C1CCC(CNS(=O)(=O)c2ccc(F)cc2)CC1 (stereo unspecified)	-2.8	-0.1	-2.8	14	20	3.0	-2%	-3	5	-2
C=CC(=O)N1c2ccccc2Sc2ccc(NC(=O)OCC)cc21	.	0.0	-0.9	.	.	.	4%	-12	-25	-5
O=C(NCc1ccco1)C1CCCN(S(=O)(=O)c2cccc3cccnc23)C1 (stereo unspecified)	1.4	0.0	?	-4	-2	-0.5	-1%	3	0	-2
COc1ccccc1CN1CC(C(=O)N(C)CCOc2ccccc2)CCC1=O (stereo unspecified)	1.8	-0.5	0.8	5	-2	1.1	.	7	-1	12
COc1ccc(CC(=O)Nc2nc(C)cs2)cc1S(=O)(=O)N1CCOCC1	0.4	2.0	.	10	8	-1.7	.	.	1	.
CC(C)Oc1ccc(C(=O)NC(Cc2c[nH]c3ccccc23)C(=O)NN)cc1 (stereo unspecified)	-2.3	0.0	-0.1	10	10	1.8	0%	10	-12	9
Cc1cccc(NC(=O)c2cc(Cl)ccc2[N+](=O)[O-])c1	.	0.4	0.5	.	.	.	-6%	1	0	-40
C=CCn1c(SCc2ccc3nonc3c2)nnc1-c1cccs1	.	-1.2	-3.7	.	.	.	0%	-9	-8	16
O=C(O)c1ccc(Nc2nc(-c3ccccc3)nc3ccccc23)cc1	-4.2	-1.4	-0.7	-19	-34	-21	5%	0	.	35
CCc1ccc2c(CC(=O)Nc3cccc(S(=O)(=O)N4CCOCC4)c3)coc2c1	1.3	0.3	.	-4	-24	8.4	0%	.	3	.
NN/C(=C\[N+](=O)[O-])Nc1ccccc1	4.2	-1.1	-4.2	5	2	1.6	22%	-18	-2	-2
CC1CCN(C(=O)c2ccc(S(=O)(=O)N3CCCCCC3)cc2)CC1	-2.3	0.7	.	2	-19	-0.5	.	.	-1	.
COc1cccc(NC(=O)CN2C(=O)CSc3ccc(S(=O)(=O)N4CCC(C)CC4)cc32)c1	2.4	-1.5	2.2	-1	-14	2.5	.	-3	-5	-4
CCOc1ccc(N2C(=O)CC(N3CCN(c4ccccc4F)CC3)C2=O)cc1 (stereo unspecified)	.	-0.8	-3.8	.	.	.	24%	-14	-2	10
O=C(COc1ccc(F)cc1)NNC(=O)c1cc2ccccc2oc1=O	?	-0.4	-2.1	6	11	0.0	4%	-16	0	2
O=C(N/N=C/c1cnc(N2CCCCC2)s1)c1ccc(C(F)(F)F)cc1	2.6	1.0	1.6	16	13	2.1	1%	41	104*	-2
Cc1nc(N[C@@H](Cc2ccccc2)C(=O)O)c2oc3ccccc3c2n1	.	-0.4	-1.0	.	.	.	-4%	-10	-8	-4
COc1ccc(NS(=O)(=O)c2cc(NC(=O)c3ccc(F)cc3)ccc2OC)cc1	.	-1.4	4.1	.	.	.	-5%	-4	.	-4
CCn1ncc(C2=NOC(C(=O)NCc3ccc(Cl)cc3)C2)c1C (stereo unspecified)	.	1.5	-2.5	.	.	.	-7%&29%	-71	15	6
COCCC(=O)N(Cc1ccc2c(c1)OCO2)C(C(=O)NC1CCCCC1)c1ccncc1 (stereo unspecified)	.	0.3	3.7	.	.	.	6%	17	2	0

# (list continues)
SMILES	MLL AF4-AF9 inh	Bfl-1 A1 inh	RanGTP-Imp inh	rRNA inh HTS	rRNA inh HTS OD600	rRNA inh HTS RFP	Vif TR-FRET	T cruzi repl	Beta apoptosis	Calb FLC
CCOC(=O)N1CCN(C(=S)NC(=O)c2cncc(Br)c2)CC1	.	0.5	-1.6	.	.	.	-7%	-25	-7	7
Cc1csc(NC(=O)CSc2nnc(-c3ccoc3C)n2C(C)c2ccccc2)n1 (stereo unspecified)	-5.1	0.4	-1.4	-20	-19	17	12%	0	6	-5
FC(F)(F)c1cccc(NC(=S)NNC(=S)Nc2cccc(C(F)(F)F)c2)c1	.	-0.3	0.2	.	.	.	.	55*	97*	-5
O=C(C1=C[C@H](c2ccc(Br)cc2)C[C@H](OCc2ccc(CO)cc2)O1)N1CCOCC1	-1.8&-1.3	1.1	2.6	-17	-27	26	16%	4	7	-1
O=C(Nc1ccc(S(=O)(=O)NC2=NCCCCC2)cc1)c1ccco1	-1.6	0.3	-2.1	0	7	-1.2	9%	5	-2	-7
CCOC(=O)c1sc(NC(=O)CSc2nc3c(cc2C#N)CCCCCC3)c(C#N)c1C	.	0.4	1.8	.	.	.	-7%	-16	40	11
O=c1cc(O)n(C2CCCCCC2)c(=O)[nH]1	-5.4	0.0	0.1	9	12	8.6	0%	-10	-4	10
O=C(O)COn1c(-c2ccc(Cl)cc2)nc2ccc(Cl)cc21	-1.1	-0.8	0.2	2	7	-0.6	-2%	-12	2	-6
Nn1c(SCC(=O)Nc2nnc(-c3ccccc3)o2)nnc1C1CC1	-0.5	0.6	4.7	5	10	0.1	2%	-21	-2	0
Cc1ccc(C(C[N+](=O)[O-])c2c(C)cc3ccccn23)cc1 (stereo unspecified)	7.6	1.6	0.6	13	3	3.3	22%	0	0	17
CC(C(O)C12CC3CC(CC(C3)C1)C2)N1CCCCC1 (stereo unspecified)	0.9	0.1	-0.2	1	0	-0.5	0%	-9	-4	-22
O=C(c1ccc(NC2=NC3CS(=O)(=O)CC3S2)cc1)N1CCN(c2ccc([N+](=O)[O-])cc2)CC1 (stereo unspecified)	-2.8	-0.4	1.6	13	1	3.4	.	19	0	-9
COC(=O)C1=C(C)N=C2SC(C#N)=C(N)N2C1c1cccc(OC)c1 (stereo unspecified)	.	0.4	?	.	.	.	6%	-12	-1	-18
Fc1ccc(-c2ccnc3nc(N4CCOCC4)nn23)cc1	.	-0.3	1.6	.	.	.	9%	-12	-10	44
O=C(CCN=C1NS(=O)(=O)c2ccccc21)OCc1nnc(-c2ccc([N+](=O)[O-])cc2)o1	-4.7	0.4	.	23	22	0.5	-5%	.	-4	.
O=C(Nc1ccnn1C1CCN(C2CCCC2)CC1)c1ccccc1Cl	-1.9	-1.8	24	-1	5	-0.6	.	-14	-7	1
CCCC(=O)N1CCN(c2nc3c(OC)ccc(Cl)c3s2)CC1	2.2	0.6	1.8	-36*	-24*	0.4*	.	-7	5	-2
Cc1cnc(CNC(=O)C2CCC(=O)N(CCc3cccc(F)c3)C2)[nH]1 (stereo unspecified)	-2.1	0.8	7.9	19	13	3.2	0%	-12	-6	-4
O=[N+]([O-])c1cc(S(=O)(=O)N2CCCCCC2)ccc1F	1.7	0.1	.	0	2	-4.4	?	.	-6	.
O=c1cc(NCc2ccccc2)nc2n1CCCS2	.	-0.4	20*	.	.	.	5%	-9	2	-8
CN(C)Cc1ccccc1COc1ccccc1	6.0	0.2	4.9	18	3	1.0	4%	2	4	-11
CC(C)(CC(=O)O)CC(=O)NCc1c(Cl)cccc1Sc1ccc(Cl)cc1	-1.1	0.1	0.2	-40*	-2.5*	-5.5*	-1%	-5	1	-5
COc1cccc(OCCn2c(C)c(/C=N/n3cnnc3)c3ccccc32)c1	.	0.1	4.3	.	.	.	-2%	25	4	-28
CCCC(=O)Nc1ccc2nc(SCC(=O)N3CCCC3)sc2c1	-1.7	0.6	-1.3	22	15	1.6	-6%	0	-2	-4
O=C(NCCc1cccnc1)c1cc(COc2ccc(F)cc2F)on1	-5.4	-0.8	-1.2	-12	-5	-2.1	.	3	0	1

# (more compounds)
SMILES	MLL AF4-AF9 inh	Bfl-1 A1 inh	RanGTP-Imp inh	rRNA inh HTS	rRNA inh HTS OD600	rRNA inh HTS RFP	Vif TR-FRET	T cruzi repl	Beta apoptosis	Calb FLC
COc1cc(C(=O)O/N=C(\N)c2ccccn2)cc(OC)c1OC	4.0	-0.5	-2.4	4	-8	0.6	-5%	-13	-1	4
Cc1ccc(S(=O)(=O)N2CCCC(C)C2)cc1 (stereo unspecified)	2.1	0.7	1.0	7	6	-0.2	-6%	6	-5	6
O=[N+]([O-])c1cccc(-c2ccc(SCc3ccccn3)nn2)c1	1.6	-0.3	-2.6	-2	-6	-1.7	.	10	3	7
CC(NC(=O)COc1cc(=O)n(C)c2ccccc12)c1ccc2c(c1)OCCO2 (stereo unspecified)	.	-0.9	-3.4	.	.	.	2%	10	-3	-4
O=C(c1cnc2n(c1=O)CCS2)N1CCCc2ccccc21	1.3	-0.1	0.8	13	9	-6.6	3%	1	-1	-7
Cc1nn(Cc2ccccc2Cl)c(C)c1NC(=O)/C=C/c1cnn(C)c1	.	-1.1	0.4	.	.	.	-2%	-10	-2	-11
COc1cccc(C2C(C(=O)c3cc4cccc(OC)c4o3)=C(O)C(=O)N2c2cc(C)on2)c1OC (stereo unspecified)	.	-0.2	3.4	.	.	.	-32%&-27%	-6	-5	18
CC(C)[C@H](NC(=O)[C@@H]1Cc2ccccc2CN1)C(=O)Nc1ccc2c(c1)OCCO2	0.2	-1.4	?	1	-1	-3.4	.	1	-5	1
Fc1ccc(-c2cc(C(F)(F)F)nc(-n3cc(Cl)cn3)n2)cc1	1.5	0.6	1.2	0	-10	-3.4	31%	-12	11	-6
C=CCN1C(=NC(=O)CCC)SC2CS(=O)(=O)CC21 (stereo unspecified)	.	1.9	-1.3	.	.	.	1%	13	3	-8
NC(=S)Nc1c(Cl)cccc1Cl	-0.3	-0.4	5.8	3	5	-3.1	.	-4	-2	0
Cc1ccc(C)c(S(=O)(=O)NCc2ccc(C(=O)NCc3ccco3)cc2)c1	.	-0.2	-1.0	.	.	.	.	-18	6	-2
O=C(NC1CCCC1)c1c[nH]c2ccc(F)cc2c1=O	.	-0.6	0.8	.	.	.	14%	5	8	?
CNc1nc(Cl)c(SC)c(NCc2cccc(OC)c2)n1	-2.0	0.3	-0.3	-4	-7	3.1	6%	10	5	24
CCOC(=O)c1cnc2cc(C)ccn2c1=O	.	0.0	0.6	.	.	.	-2%	-11	-9	-6
Cc1cccc(N(C)C(=O)c2coc(=O)c3ccccc23)c1	.	0.3	0.0	.	.	.	2%	-12	-9	-5

# Compound activity (PubChem)
